Screening results from PubChem BioAssay.
Polio RdRp inh: inhibitors of poliovirus RNA polymerase binding and polymerization. P03300. poliovirus polymerase elongation, fluorescence polarization; active compounds read low. % elongation, % (compound at 16.7 µg/mL). 150,000 tested, 0.66% active. AID 588519; in the data active = % elongation below about 90%; also: some results filed as inactive read as strong as hits
Target sequence (P03300 1749-2209 limits assumed): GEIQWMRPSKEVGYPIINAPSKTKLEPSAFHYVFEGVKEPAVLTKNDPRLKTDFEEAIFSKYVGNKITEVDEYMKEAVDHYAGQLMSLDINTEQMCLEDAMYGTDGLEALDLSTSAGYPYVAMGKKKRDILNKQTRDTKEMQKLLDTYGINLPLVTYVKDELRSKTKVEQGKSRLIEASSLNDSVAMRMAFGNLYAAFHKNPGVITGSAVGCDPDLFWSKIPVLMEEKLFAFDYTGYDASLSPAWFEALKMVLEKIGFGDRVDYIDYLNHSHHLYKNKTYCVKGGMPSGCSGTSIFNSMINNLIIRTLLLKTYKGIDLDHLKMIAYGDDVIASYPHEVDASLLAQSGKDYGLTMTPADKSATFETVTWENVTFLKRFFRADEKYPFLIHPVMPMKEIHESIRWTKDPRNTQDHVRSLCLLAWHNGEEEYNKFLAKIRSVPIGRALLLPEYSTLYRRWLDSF
Polio RdRp inh intensity: second read-out of Polio RdRp inh, no call of its own (marks repeat the call); % elongation; measured here: total intensity read-out; formula for this scale not given here;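 total fluorescence in place of polarization; lower means less elongation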
The depositor's hits bear a star. The list is partial, so the mix of outcomes need not match the whole.

canonical_smiles | Polio RdRp inh | Polio RdRp inh intensity
COC(=O)c1ccc(OCC2c3cc(OC)c(OC)cc3CCN2C(=O)c2ccccc2C)cc1 (stereo not given) | 108 | 113
Cc1cc(C)cc(NC(=O)CN2C(=O)CN=C(c3ccccc3)c3cc(Cl)ccc32)c1 | 104 | 105
Cn1cc(CCC(=O)NCc2ccc(Cl)cc2)c2ccccc21 | 104 | 100
COc1ccc(NC(=O)CSc2nc3c(c(=O)[nH]2)CCC3)cc1 | 104 | 107
Cc1c(-c2ccc(Cl)cc2)c(=O)oc2c(CN3CCN(C)CC3)c(O)ccc12 | 109 | 102
O=C(CCC1N=C2c3ccccc3N=C(SCc3ccccc3Cl)N2C1=O)N1CCN(c2ccccc2)CC1 (stereo not given) | 114 | 118
CCc1nc(-c2cc(S(=O)(=O)N3CCN(c4ccc(F)cc4)CC3)ccc2OC)no1 | 112 | 107
COC(=O)c1ccc2c(c1)N(CC(=O)Nc1ccc(C)c(C)c1)C(=O)c1ccccc1S2 | 109 | 104
COc1cc(Cl)c(C)cc1NC(=O)CCn1cnc2onc(-c3ccc(F)cc3)c2c1=O | 102 | 107
Cc1ccc(-c2nc(C(=O)Nc3cccc(C#N)c3)c3n2CCCCC3)cc1 | 109 | 98
Cc1ccc(C)c(NC(=O)Cn2nnc(C(=O)NCCc3ccccc3)c2N)c1 | 97 | 102
COc1ccc(N(CC(=O)Nc2cccc(Cl)c2)S(=O)(=O)c2c(C)[nH]c(=O)[nH]c2=O)cc1 | 101 | 105
CN(CC(=O)Nc1ccc(Br)cc1)S(=O)(=O)c1cccc2nsnc12 | 107 | 112
O=C(CS(=O)(=O)c1cccc2nsnc12)N1CCN(c2cccc(Cl)c2)CC1 | 114 | 105
O=C(c1cnn(-c2ccc(F)cc2)c1-n1cccc1)N1CCN(c2cccc(Cl)c2)CC1 | 110 | 110
CCN(C(=O)CSc1nc2ccccc2nc1Cc1ccc(F)cc1)c1cccc(C)c1 | 110 | 108
O=C(Cn1cc(SCc2ccc(Cl)cc2)c2ccccc21)N1CCOCC1 | 116 | 120
Cc1cc(C)cc(OCC(=O)N(Cc2cccs2)c2ccc(Cl)cc2)c1 | 107 | 111
COc1ccc(N2CCN(C(=O)CN3C(=O)CSc4c3c(C)nn4-c3ccccc3)CC2)cc1 | 114 | 108
CCn1c(CN2CCCCC2)nc2cc(NC(=O)c3cc(OC)c(OC)c(OC)c3)ccc21 | 103 | 100
COCCCNC(=O)CCCn1c(SCC(=O)c2ccc(F)cc2)nc2c(sc3ccccc32)c1=O | 102 | 105
CCOCCc1nnc(NC(=O)C(=O)c2cc(C)n(-c3ccc(C)cc3C)c2C)s1 | 110 | 113
Cc1ccc(CSc2ncccc2C(=O)O)cc1 | 112 | 112
CCCCC(=O)Nc1ccccc1C(=O)OCc1cc(=O)n2nc(C3CCCCC3)sc2n1 | 104 | 106
CC(=O)c1cc(-c2ccc(F)cc2)n(CCC(=O)NC2CCCCC2)c1C | 104 | 109
O=C(CSc1nncn2c1cc1occc12)Nc1ccc(F)c(Cl)c1 | 112 | 117
Nc1c(C(=O)Nc2ccc(F)c(F)c2)sc2nc(-c3ccncc3)ccc12 | 116 | 126
COC(=O)c1ccc(NC(=O)CSc2nc3c(c(=O)n(C)c(=O)n3C)n2Cc2ccccc2)cc1 | 98 | 94
O=C(Nc1ccc2nc(SCC(=O)N3CCc4ccccc43)sc2c1)c1ccccc1 | 100 | 104
CC(C)(C)C(=O)OC1=CN(Cc2ccccc2)S(=O)(=O)c2ccccc21 | 108 | 108
O=C(Nc1ccccc1Cl)c1cc(S(=O)(=O)N2CCC3(CC2)OCCO3)ccc1F | 106 | 108
COc1ccc(N2CCN(C(=O)c3oc4ccccc4c3NC(=O)c3ccccc3OC)CC2)cc1 | 113 | 104
Cc1ccc(CN2CCC(CNC(=O)c3cnn(-c4ccc(C)cc4)c3C3CCN(C(=O)OC(C)(C)C)CC3)CC2)cc1 | 106 | 102
COC(=O)c1sccc1S(=O)(=O)N(CC(=O)NCc1ccccc1)c1ccc(C)cc1 | 105 | 104
Cc1ccc(NC(=O)CCNS(=O)(=O)c2ccc(Br)s2)cc1 | 104 | 107
CCOC(=O)c1ccccc1NC(=O)c1sc2nc3n(c(=O)c2c1C)CCCCC3 | 103 | 108
COc1cccc(CNCc2c(C(=O)O)c(C)n(Cc3ccc(F)cc3Cl)c2C)c1OC | 104 | 102
Cc1ccc(CNC(=O)c2sc3nc4n(c(=O)c3c2C)CCCCC4)cc1 | 105 | 100
CCOc1ccc(NC(=O)CC2C(=O)N(c3ccccc3)C(=O)N2C2CCCC2)cc1 (stereo not given) | 112 | 110
O=C(Nc1nc(-c2ccccc2)ns1)c1ccc(Cl)cc1 | 103 | 106
Cc1ccc2c(c1)-c1onc(C(=O)N3CCN(c4cccc(C)c4C)CC3)c1CO2 | 108 | 106
CCOC(=O)c1ccccc1Nc1cc(C)nc2nc(-c3ccco3)nn12 | 111 | 102
CCOC(=O)Cc1ccc(NC(=O)N2CC(CC)Oc3ccccc32)cc1 (stereo not given) | 111 | 116
COc1ccc(NC(=O)CN2CCN(Cc3ccccc3)S2(=O)=O)c(OC)c1 | 118 | 113
Cc1ccc2cccc(NC(=O)c3cccc4c(Br)cccc34)c2n1 | 109 | 105
O=C(NCCc1csc(-c2cccc(F)c2)n1)C(=O)Nc1cc(F)ccc1F | 104 | 107
O=C(Cn1nc(C(F)(F)F)c2c1CCCC2)Nc1ccc(Cl)cc1 | 107 | 112
COC(=O)c1ccc(NC(=O)Nc2nnc(N(C)C3CCCCC3)s2)cc1 | 104 | 102
CCOc1ccccc1CN(CCc1ccc2c(c1)OCO2)Cc1cccc(OC)c1OC | 102 | 101
Cc1ccc(F)cc1NC(=O)CCc1c(C)nn(-c2ccc(N3CCCCC3)nn2)c1C | 106 | 113
COc1cc2c(cc1OC)C(COc1ccc3c(C)cc(=O)oc3c1)N(C(=O)CC(C)C)CC2 (stereo not given) | 108 | 112
Cn1c(=O)c2c(n3c4ccccc4nc13)NC(=O)CC2c1cccc(Cl)c1 (stereo not given) | 105 | 97
CCc1ccc(-n2nc(CO)c(C(=O)NCCc3ccccc3)n2)cc1 | 108 | 104
Cc1cc(=O)n(Cc2ccccc2)c2c1c(C)nn2-c1ccccc1 | 108 | 111
Cc1c(C(=O)OCC2CCCCC2)[nH]c2c1C(=O)CC(c1ccc(Cl)cc1)C2 (stereo not given) | 108 | 113
CCOc1ccc(-c2cc3nc(C4CCN(C(=O)OC(C)(C)C)CC4)c(C(=O)Nc4cccc(C(F)(F)F)c4)cn3n2)cc1 | 108 | 108
Cc1ccc(Cl)cc1NC(=O)c1cc(-c2ccc3c(c2)OCCO3)on1 | 107 | 104
O=C(NCc1ccccc1)c1cnc2sc(N3CCCC3)nn2c1=O | 108 | 110
COC(=O)c1ccc(Cl)cc1NC(=O)N(Cc1ccc(OC)cc1)C1CCN(C(C)=O)CC1 | 110 | 116
O=C(Nc1cccc(C(F)(F)F)c1)c1ccc2c(c1)nnn2C1CCCC1 | 103 | 102

Some of the entries above in a different format.
Order of results – Polio RdRp inh	Polio RdRp inh intensity
> Cc1ccc(CN2CCC(CNC(=O)c3cnn(-c4ccc(C)cc4)c3C3CCN(C(=O)OC(C)(C)C)CC3)CC2)cc1
 : 106	102
> COC(=O)c1sccc1S(=O)(=O)N(CC(=O)NCc1ccccc1)c1ccc(C)cc1
 : 105	104
> Cc1ccc(NC(=O)CCNS(=O)(=O)c2ccc(Br)s2)cc1
 : 104	107
> CCOC(=O)c1ccccc1NC(=O)c1sc2nc3n(c(=O)c2c1C)CCCCC3
 : 103	108

Back to the main list; the 6 compounds before the break are reprinted first.
canonical_smiles | Polio RdRp inh | Polio RdRp inh intensity
Cc1c(C(=O)OCC2CCCCC2)[nH]c2c1C(=O)CC(c1ccc(Cl)cc1)C2 (stereo not given) | 108 | 113
CCOc1ccc(-c2cc3nc(C4CCN(C(=O)OC(C)(C)C)CC4)c(C(=O)Nc4cccc(C(F)(F)F)c4)cn3n2)cc1 | 108 | 108
Cc1ccc(Cl)cc1NC(=O)c1cc(-c2ccc3c(c2)OCCO3)on1 | 107 | 104
O=C(NCc1ccccc1)c1cnc2sc(N3CCCC3)nn2c1=O | 108 | 110
COC(=O)c1ccc(Cl)cc1NC(=O)N(Cc1ccc(OC)cc1)C1CCN(C(C)=O)CC1 | 110 | 116
O=C(Nc1cccc(C(F)(F)F)c1)c1ccc2c(c1)nnn2C1CCCC1 | 103 | 102
CC1Cc2cc(S(=O)(=O)CCC(=O)Nc3ccc(Cl)cc3F)ccc2N1C(=O)C1CC1 (stereo not given) | 109 | 112
COc1ccc(Cl)cc1NC(=O)Cn1c(=O)n(Cc2nc(C)no2)c(=O)c2ccccc21 | 108 | 106
COc1ccc(CNC(=O)C(=O)NCC(c2ccco2)S(=O)(=O)c2cccs2)cc1 (stereo not given) | 112 | 111
Cc1cccc(C(=O)N2CCCCC2CCN2CCCCC2)c1 (stereo not given) | 114 | 112
Cc1ccc(Sc2ccc(N3CCCC(C(=O)Nc4ccc(F)c(Cl)c4)C3)nn2)cc1 (stereo not given) | 106 | 112
CCOc1ccc(NC(=O)Cn2c(=O)c(CNc3ccc(OC)cc3)cc3ccc(OC)cc32)cc1 | 101 | 103
CC1CCN(S(=O)(=O)c2nnc(NC(=O)c3ccc(C(C)C)cc3)s2)CC1 | 111 | 114
COc1cccc(CCNC(=O)c2c(O)nc3cc(C)ccn3c2=O)c1 | 106 | 110
CCCCN(CCCNC(=O)c1ccc(Sc2ccc(Cl)cc2)c(NC(C)=O)c1)c1ccccc1 | 111 | 113
CCOc1ccc2c(c1)c(=O)c(C(=O)c1ccc(CC)cc1)cn2CC(=O)Nc1ccc2c(c1)OCCO2 | 110 | 110
Cc1ccc(Cl)cc1NC(=O)C(C)n1nc(-c2ccccc2)ccc1=O (stereo not given) | 107 | 111
CCOc1ccc(C(=O)NCc2nc3cccnc3n2Cc2cccc(OC)c2)cc1 | 107 | 115
CCOC(=O)c1nn2c(C(F)(F)F)cc(-c3ccc(C)cc3)nc2c1Cl | 105 | 110
Cc1ccccc1CNC(=O)C1CCN(c2nnc(-n3c(C)ccc3C)s2)CC1 | 103 | 104
COc1ccccc1NC(=O)NCCCN1CCN(c2ccc(F)cc2)CC1 | 103 | 106
COc1ccc(-n2cc(C(=O)NC(C)c3ccccc3)c3ccccc3c2=O)cc1 (stereo not given) | 108 | 106
Cc1ccc2c(=O)cc(CSc3ncn[nH]3)[nH]c2c1C | 108 | 109
CCOC(=O)c1c(C)n(-c2ccccc2)c2ccc(OC(=O)c3cc(OC)cc(OC)c3)cc12 | 106 | 111
Cc1c(NC(=O)c2cc(-c3ccc(Br)cc3)on2)c(=O)n(-c2ccccc2)n1C | 101 | 106
CCCCOc1ccc(S(=O)(=O)NCc2csc(-c3ccc(OC)cc3)n2)cc1 | 105 | 106
Cc1cccc(NC(=O)C2CCC(CNS(=O)(=O)c3ccc4c(c3)CCCC(=O)N4)CC2)c1C (stereo not given) | 99 | 105
CC(NC(=O)CCNS(=O)(=O)c1cccc2nsnc12)c1ccccc1 (stereo not given) | 107 | 113
CCCN1Cc2cccc(C(=O)Nc3cccc(C(=O)OCC)c3)c2C1=O | 102 | 104
COc1cccc2c1Oc1nc(-c3ccccc3)nc(SCC(=O)Nc3ccccc3)c1C2 | 107 | 110
COc1cccc(NC(=O)C2CCN(c3cc(C)nc4c(-c5ccc(Cl)cc5)c(C)nn34)CC2)c1 | 104 | 108
Cc1ccc(C)c(NC(=O)C(CC(C)C)N2Cc3ccccc3C2=O)c1 (stereo not given) | 115 | 103
Cc1ccc(-c2nn3c(=O)cc(CN4CCN(C(=O)/C=C/c5ccccc5)CC4)nc3s2)cc1 | 108 | 105
Cc1ccc(-n2nc(C)c3c(C)cc(=O)n(CC(=O)Nc4cc(Cl)ccc4C)c32)cc1 | 104 | 105
Cc1ccc(S(=O)(=O)C2(C(=O)Nc3ccc(C(C)C)cc3)CC2)cc1 | 110 | 109
COc1ccccc1N1CCN(C2C(=O)c3ccccc3N2C(C)=O)CC1 (stereo not given) | 108 | 106
Cc1cccc(NC(=O)CN(C)S(=O)(=O)c2ccc3c(c2)c(=O)n(C)c(=O)n3C)c1 | 105 | 102
Cc1ccc(-n2nc(C)c3c(C(=O)O)cc(C)nc32)cc1 | 112 | 115
CC(C)(C)OC(=O)N1CCC(c2c(C(=O)N3CCN(c4ccccn4)CC3)cnn2-c2cccc(F)c2)CC1 | 108 | 110
CC(C)C(=O)NCC(c1ccc2c(c1)OCO2)N1CCN(c2ccccc2)CC1 (stereo not given) | 100 | 106
Cc1ccc(Cl)cc1NC(=O)Cn1ncc2c(C)n(Cc3ccccc3F)c(C)c2c1=O | 105 | 106
COc1ccc(N2CCN(C(=O)Cn3nc(Cc4cccnc4)c4ccccc4c3=O)CC2)cc1 | 106 | 103
CCCCOC(=O)c1ccc(NC(=O)c2cc(=O)c3ccccc3o2)cc1 | 112 | 109
CC1=C(C(=O)Nc2cc(C)ccc2C)C2(CCCCCC2)OC1=O | 106 | 105
COc1ccc(CN2C(=O)C(NC(=O)c3ccccc3C)(C(F)(F)F)N=C2c2ccccc2)cc1 (stereo not given) | 107 | 111
COc1cc(C(=O)n2nc(-c3ccco3)nc2NCc2ccc(Cl)cc2)cc(OC)c1OC | 105 | 108
CC1CCCCN1C(=O)CSc1n[nH]c(-c2ccccc2Cl)n1 (stereo not given) | 104 | 107
COC(=O)c1ccc(OCC2c3cc(OC)c(OC)cc3CCN2C(=O)c2ccc(F)cc2)cc1 (stereo not given) | 112 | 103
Cc1cc(Br)ccc1NC(=O)C1CCCN(S(=O)(=O)c2cccc3nonc23)C1 (stereo not given) | 105 | 110
COc1ccc(-c2cnc(C)o2)cc1S(=O)(=O)Nc1ccc(F)cc1F | 109 | 96
